Source: PubChem (ICCB-Longwood Screening Facility, Harvard Medical School)
S aureus helic – S. aureus DNA helicase inhibition; inhibition, %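 (tested at about 80 µM)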; purified S. aureus helicase, fluorescence unwinding assay; about half of the hits fall short of the stated cut; AID 485395; hit rate 0.05% among 120,000;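 active = both duplicates at 50% or more, or one of them with a favoured structure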;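 also: 0% = mean of negative control wells and 100% = mean of positive control wells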
MgrA-DNA mod – S. aureus MgrA-DNA binding modulation; fluorescence polarization; inhibition, %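 (about 10 µg/mL by stock and volumes)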; hit rate 0.13% among 84,000; AID 602314;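 active = above 50% in either of two replicates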;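 also: 0% = protein plus DNA without compound and 100% = DNA alone without protein; higher means less MgrA bound to DNA so lower polarization; one replicate is shown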
Starred values were filed as active, the others as inactive; x = not tested or not shown. This is a subset; the hit share may differ from the screen's.

SMILES	S aureus helic	MgrA-DNA mod
c1cn(CCCNc2ncnc3sc4c(c23)CCCC4)cn1	x	-2.6
CCCn1c(N)c(C(=O)COC(=O)c2cccnc2SC)c(=O)[nH]c1=O	1	x
Cn1nnnc1-c1ccco1	-13	0.6
COc1ccc(/C=c2\sc3ncnn3c2=O)cc1	-11	x
Fc1ccc(-c2csc(=Nc3ccccc3)n2Cc2cccnc2)cc1	-6	-1.0
Cc1ccc(NC(=O)Cn2cc3c(n2)CCCC3)cc1	1	x
N#CC(C(=O)Cc1ccccc1)c1ccc(Cl)cc1 (centres undefined)	x	1.8
CN1c2ccccc2C(=O)C(=C2SCCCS2)S1(=O)=O	-18	x
C(=N\N=C\c1cccnc1)/c1cccnc1	15	x
Cc1[nH]n(C)c(=O)c1C(=O)c1c(-c2ccccc2Cl)noc1C	x	1.4
NC(=O)NC(=O)CSc1nnc(-c2ccccc2)n1Cc1ccc2c(c1)OCO2	6	x
Cc1ccc(NC(=O)C2(N3CCN(c4ccccc4)CC3)CCCCC2)cc1	-42	x
CC(C)[N+]1(C)C2CC[C@@H]1CC(OC(=O)C(CO)c1ccccc1)C2 (some centres undefined)	x	-0.2
COc1ccc(C2Nc3ccccc3C(=O)N2c2ccc(C)cc2)cc1COc1ccccc1F (centres undefined)	x	3.6
COc1ccc(C(=O)O)cc1OC1CCCC1	x	-1.4
CC(=O)N1CC(=O)N=C1SCC(=O)Nc1ccc(S(N)(=O)=O)cc1	8	x
O=C(c1ccc(NC(=S)NCc2ccco2)cc1)N1CCCCC1	5	-3.9
COC(=O)c1sccc1Oc1ccc(Cl)cc1[N+](=O)[O-]	x	-1.2
O=S(=O)(Nc1ccc(Oc2ccc(Cl)cc2)cc1)c1ccccc1	x	2.0
N#CCNC(=O)c1cc2nc(-c3cccs3)cc(C(F)(F)F)n2n1	-2	x
CC1SC(c2ccc(Cl)cc2)NC1=O (centres undefined)	24	x
O=C(CCc1ccccc1)NCc1ccc2c(c1)OCO2	8	0.8
O=C(NCc1ccco1)c1cccc(COc2ccccc2Br)c1	9	x
O=S(=O)(c1ccc(F)cc1)N1CCCN(c2nccc(C(F)(F)F)n2)CC1	x	1.2
Cc1cc(C(=O)COc2ccc(Cl)cc2)c(C)n1-c1ccon1	-4	x
CC(C)(C)c1ccc(C2NC(=O)c3ccccc3N2)cc1 (centres undefined)	9	x
COc1cccc(C=NCCN2CCOCC2)c1O	16	x
O=C(Cc1ccc(-n2cccc2)cc1)NCCc1ccccc1	2	1.5
O=C1NC(c2ccccc2)c2c(-c3ccccc3)n[nH]c21 (centres undefined)	12	x
C=CCN(C(=O)Cn1c(=O)n(Cc2ccco2)c(=O)c2cc(OC)c(OC)cc21)c1ccccc1	2	0.6
COC(=O)C(N=Cc1ccccc1)c1ccccc1 (centres undefined)	x	0.1
CCN1N=C(C)C=C(C)n2c1nc1ccccc12	-7	2.3
O=C(CSc1ccccn1)Nc1ncccn1	-8	16
O=c1cc(Cc2nnc(SCc3c(F)cccc3Cl)n2-c2ccc(F)cc2)[nH]c(=O)[nH]1	9	-1.1
Cc1ccc(C)c(S(=O)(=O)c2nnn3c2nc(N2CCC(C(N)=O)CC2)c2sccc23)c1	20	x
COc1ccc(C(=O)Cc2cc3ccccc3oc2=O)c(OC)c1	6	-0.2
COc1ccc(C(=O)Nc2ccc(C)c(C)c2)cc1	-19	-0.6
O=c1c2ccccc2nnn1CN1CCN(S(=O)(=O)c2cccs2)CC1	7	x
OC(COCc1ccccc1)CN1CCN(c2ccccc2)CC1 (centres undefined)	-3	x
CCOC(=O)c1ccc2c(c1)sc1nc(-c3cccc(OC)c3)cn12	-18	x
N#CC1C2CCC(C2)C1C(=O)c1ccccc1 (centres undefined)	11	-1.8
COC(=O)C1=C(CN2CCC(C)CC2)NC(=O)NC1c1ccc(OC)cc1 (centres undefined)	9	4.1
Nc1ncnc2sc3c(c12)CCCC3	8	0.7
Cc1ccc(OCCCn2c(=O)oc3ccccc32)cc1	1	-3.0
COCCn1c(=NC(=O)c2ccccc2)sc2cc(NC(C)=O)ccc21	16	x
CN(O)/C=C1\C(=O)Nc2ccccc21	x	0.4
c1ccc2c(c1)ncc1cccn12	2	0.9
COc1ccc(C2CC(c3ccccc3)n3ncnc3N2C(=O)C2CC2)cc1 (centres undefined)	5	-0.5
CCCCS(=O)(=O)Nc1cc(C(=O)OC)cc(C(=O)OC)c1	-12	4.0
O=C(Nc1ccc(O)cc1)C(=O)c1c(O)[nH]c2ccccc12	-3	x
Cc1[nH]c2ccccc2c1C(=O)C(C)OC(=O)c1cccc(N(C)C)c1 (centres undefined)	-3	x
Cc1ccsc1CNS(=O)(=O)c1cccc2nonc12	x	1.1
CCOC(=O)C1=C(C)NC(C)=C(C(=O)OCC)C1C(=O)OCC(=O)NC1CCCCCC1	-19	x
Cc1cc(C(=O)OC(C)C(=O)Nc2cccc(Cl)c2)c2ccccc2n1 (centres undefined)	-6	-1.0
Cc1n[nH]c(C)c1Nc1nc(-c2ccccc2)cs1	13	1.8
Cc1oc(C(C)(C)C)cc1-c1cc(N)n(-c2ccc(I)cc2)n1	x	-2.4
CC(O/N=C/c1ccccc1OC(F)F)C(=O)NC1CCCC1 (centres undefined)	-6	x
CCN(CC)CCn1nc2c3c(cccc3c1=O)-c1ccccc1-2	14	x
CC(=O)N1CCOc2ccc(S(=O)(=O)Nc3cc(C(F)(F)F)cc(C(F)(F)F)c3)cc21	-24	x
Cc1ccccc1N1C(S)=C(C#N)C(=O)NC1c1ccco1 (centres undefined)	-1	20
(cont.)
SMILES	S aureus helic	MgrA-DNA mod
O=C(NCc1ccccc1)c1cnc(N2CCCC2)nc1	8	9.8
O=C(CCc1nc2ccccc2[nH]1)N1CCN(C2CCCCC2)CC1	15	-0.5
COC(=O)C1CC2CCC1C2 (centres undefined)	3	x
CSc1cc(-c2ccc(F)cc2)nn1S(=O)(=O)c1cccc(C(F)(F)F)c1	x	5.1
c1ccc(CN2CCN(Cc3ccccc3)C2c2ccccc2)cc1	2	-2.8
O=C(NCC1COc2ccccc2O1)c1ccc2c(Cl)c3c(nc2c1)CCC3 (centres undefined)	-14	x
c1ccc2c(c1)nc(N1CCOCC1)n1cc(N3CCCC3)nc21	-40	x
O=C1NC(c2ccc([N+](=O)[O-])o2)Nc2sc3c(c21)CCCC3 (centres undefined)	x	3.4
CCCCOc1ccc(C(=O)On2c(-c3cc(OC)cc(OC)c3)nc3ccccc3c2=O)cc1	x	-3.2
COc1cc(OC)cc(C(=O)N/C(N)=N\c2nc3ccccc3s2)c1	-5	1.9
CC1=C(C(=O)OCC(C)C)C(c2cc3c(cc2Br)OCO3)NC(=O)N1C (centres undefined)	x	-0.5
CC(C)(C)NC(=S)N1CCn2cccc2C1c1ccc(F)cc1 (centres undefined)	-1	x
O=C(CSc1ccccc1Cl)c1ccco1	9	1.8
Cc1nn(CC(C)C)c(Cl)c1C(=O)N1CCc2ccccc2C1	14	x
CN(C(=O)CSc1ccc(Br)cc1)C1CCCCC1	-17	-2.5
COC(=O)c1cc(S(=O)(=O)N2CCCC2)oc1C	x	1.6
Oc1cc(Cc2nc3ccccc3s2)c(O)cc1Cc1nc2ccccc2s1	-9	0.5
Cn1nc(C(F)(F)F)c(-c2ccc(Br)cc2)c1NC(=O)C1CCC1C(=O)O (centres undefined)	x	-0.6
Nc1ccccc1NC1=CC(=O)CC(c2ccccc2)C1 (centres undefined)	9	-0.4
N#Cc1sccc1Br	x	-0.7
Cc1cccc(CCNCc2cc3cc4c(cc3[nH]c2=O)OCO4)c1	6	0.8
CCN(CC)S(=O)(=O)c1ccc(C(=O)Nc2ccc3c(c2)C(=O)c2ccccc2C3=O)cc1	x	1.7
Cc1occc1-c1nnc(SCc2nn[nH]n2)n1-c1ccccc1	0	5.5
O=C(O)CC1CCCC(c2ccccc2)C1=O (centres undefined)	7	0.3
CCn1c(/N=C(\C)c2cc(Cl)ccc2O)nc2ccccc21	-5	2.9
CCC(Sc1nnc(COc2ccccc2)n1C)C(=O)Nc1ccccc1 (centres undefined)	7	0.8
CCCCOc1cccc2c1CCN(Cc1ccccc1)C2=O	2	x
O=c1nc(N2CCOCC2)nc(N2CCOCC2)[nH]1	-7	-0.1
Cc1ccccc1OCCCC(=O)Nc1cccc(C(F)(F)F)c1	13	-2.7
CCn1c(SCC(=O)N2CCCc3ccccc32)nnc1-c1c[nH]c2ccccc12	10	-1.1
CCCOC(=O)C1=C(C)N(CC)C(=O)NC1c1ccccc1Cl (centres undefined)	14	0.9
N#C/C(=C\c1ccc(-c2ccccc2)o1)c1ccccc1	-16	0.0
CCCCc1ccc2nc(N)sc2c1	-32	-4.7
O=C(C1COc2ccccc2O1)N1CCCC1 (centres undefined)	13	-1.2
COc1cccc(/C=N/n2cnnc2)c1	-1	-0.8
O/C(=C\Sc1nnc(Cc2ccccc2)o1)c1ccc(F)cc1	-2	x
O=C1c2nc3cc(-c4ccccc4)[nH]n3c(=O)c2CN1Cc1ccccc1	x	1.9
Cc1ccsc1C=NCCc1ccc(S(N)(=O)=O)cc1	-7	x
CCCCCCNC(=O)NCCCCCC	x	0.4
COc1cc2[nH]c(=O)n(CCCC(=O)N3CCN(c4ccc(Cl)cc4)CC3)c(=O)c2cc1OC	-29	x
O=C1CC(=O)CC(c2ccc(Cl)cc2Cl)C1	x	-0.7
Nc1c(Br)cc(Br)c2cccnc12	27	x
CN(C)S(=O)(=O)c1ccc(SCC(=O)NC(C)(C)C)nc1	-13	x
NC1=NC(=O)/C(=C/c2ccc(I)o2)S1	-18	11
COC(=O)C1=C(N)OC2=C(C(=O)CC(C)(C)C2)C1c1ccc(Cl)cc1Cl (centres undefined)	x	0.1
O=C(CSc1nc2ccccc2n1-c1ccccc1)N1CCOCC1	-23	1.1
CCOc1cccc(C(=O)N2CCOCC2)c1	0	-0.5
O=C(NN1CCOCC1)c1cccc2c1C(=O)N(Cc1cccnc1)C2	12	-0.6
OCCN1CCN(CC/C=C2/c3ccccc3Sc3ccc(C(F)(F)F)cc32)CC1	x	2.4

Already shown: entries from further up.
SMILES	S aureus helic	MgrA-DNA mod
CCOC(=O)c1ccc2c(c1)sc1nc(-c3cccc(OC)c3)cn12	-18	x
N#CC1C2CCC(C2)C1C(=O)c1ccccc1 (centres undefined)	11	-1.8
COC(=O)C1=C(CN2CCC(C)CC2)NC(=O)NC1c1ccc(OC)cc1 (centres undefined)	9	4.1
Nc1ncnc2sc3c(c12)CCCC3	8	0.7

34 of these compounds, set out differently:
Every second line gives: S aureus helic, MgrA-DNA mod
- COC(=O)c1cc(S(=O)(=O)N2CCCC2)oc1C
 : x, 1.6
- Oc1cc(Cc2nc3ccccc3s2)c(O)cc1Cc1nc2ccccc2s1
 : -9, 0.5
- Cn1nc(C(F)(F)F)c(-c2ccc(Br)cc2)c1NC(=O)C1CCC1C(=O)O (centres undefined)
 : x, -0.6
- Nc1ccccc1NC1=CC(=O)CC(c2ccccc2)C1 (centres undefined)
 : 9, -0.4
- N#Cc1sccc1Br
 : x, -0.7
- Cc1cccc(CCNCc2cc3cc4c(cc3[nH]c2=O)OCO4)c1
 : 6, 0.8
- CCN(CC)S(=O)(=O)c1ccc(C(=O)Nc2ccc3c(c2)C(=O)c2ccccc2C3=O)cc1
 : x, 1.7
- Cc1occc1-c1nnc(SCc2nn[nH]n2)n1-c1ccccc1
 : 0, 5.5
- O=C(O)CC1CCCC(c2ccccc2)C1=O (centres undefined)
 : 7, 0.3
- CCn1c(/N=C(\C)c2cc(Cl)ccc2O)nc2ccccc21
 : -5, 2.9
- CCC(Sc1nnc(COc2ccccc2)n1C)C(=O)Nc1ccccc1 (centres undefined)
 : 7, 0.8
- CCCCOc1cccc2c1CCN(Cc1ccccc1)C2=O
 : 2, x
- O=c1nc(N2CCOCC2)nc(N2CCOCC2)[nH]1
 : -7, -0.1
- Cc1ccccc1OCCCC(=O)Nc1cccc(C(F)(F)F)c1
 : 13, -2.7
- CCn1c(SCC(=O)N2CCCc3ccccc32)nnc1-c1c[nH]c2ccccc12
 : 10, -1.1
- CCCOC(=O)C1=C(C)N(CC)C(=O)NC1c1ccccc1Cl (centres undefined)
 : 14, 0.9
- N#C/C(=C\c1ccc(-c2ccccc2)o1)c1ccccc1
 : -16, 0.0
- CCCCc1ccc2nc(N)sc2c1
 : -32, -4.7
- O=C(C1COc2ccccc2O1)N1CCCC1 (centres undefined)
 : 13, -1.2
- COc1cccc(/C=N/n2cnnc2)c1
 : -1, -0.8
- O/C(=C\Sc1nnc(Cc2ccccc2)o1)c1ccc(F)cc1
 : -2, x
- O=C1c2nc3cc(-c4ccccc4)[nH]n3c(=O)c2CN1Cc1ccccc1
 : x, 1.9
- Cc1ccsc1C=NCCc1ccc(S(N)(=O)=O)cc1
 : -7, x
- CCCCCCNC(=O)NCCCCCC
 : x, 0.4
- COc1cc2[nH]c(=O)n(CCCC(=O)N3CCN(c4ccc(Cl)cc4)CC3)c(=O)c2cc1OC
 : -29, x
- O=C1CC(=O)CC(c2ccc(Cl)cc2Cl)C1
 : x, -0.7
- Nc1c(Br)cc(Br)c2cccnc12
 : 27, x
- CN(C)S(=O)(=O)c1ccc(SCC(=O)NC(C)(C)C)nc1
 : -13, x
- NC1=NC(=O)/C(=C/c2ccc(I)o2)S1
 : -18, 11
- COC(=O)C1=C(N)OC2=C(C(=O)CC(C)(C)C2)C1c1ccc(Cl)cc1Cl (centres undefined)
 : x, 0.1
- O=C(CSc1nc2ccccc2n1-c1ccccc1)N1CCOCC1
 : -23, 1.1
- CCOc1cccc(C(=O)N2CCOCC2)c1
 : 0, -0.5
- O=C(NN1CCOCC1)c1cccc2c1C(=O)N(Cc1cccnc1)C2
 : 12, -0.6
- OCCN1CCN(CC/C=C2/c3ccccc3Sc3ccc(C(F)(F)F)cc32)CC1
 : x, 2.4
